Compound activity (PubChem BioAssay)
2A StopGo – High Throughput Screening for Foot and Mouth Disease Virus Antivirals. human cells with a luciferase reporter of 2A StopGo recoding; control for the full effect not named in the record. hit rate 1.2% among 410,000. Potency, µM (highest dose often 57.9 µM), for the others: top-dose signal change, negative = less light; active = well fitted falling curve with a large enough effect; inconclusive = small, poorly fitted or top-dose-only effect; inactive = no such curve, though single readings can be large or run the other way; tested in HEK293T cells; note: % is set by controls: 0 for no effect and ±100 for the full control effect; nearly all actives have a fitted effect of over 45% in size; luciferase light after 4 h
Cruzain noTriton – qHTS Assay for Promiscuous and Specific Inhibitors of Cruzain (without detergent). Cruzipain (Trypanosoma cruzi), P25779. purified cruzain, Z-FR-AMC fluorescence, no detergent. hit rate 2.3% among 200,000. Potency, µM, without a hit: max response, negative = inhibition, usual class: inhibitors. AID 1476, 2009; active = well fitted curve in the direction sought with a large enough effect; inconclusive = small, poorly fitted or top-dose-only effect, or another doubt; inactive = no such curve, though single readings can be large; an effect the other way counts as inactive or inconclusive;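 note: plate controls were enzyme without inhibitor for no effect and buffer without enzyme for full effect; nearly all actives have a fitted effect of over 40% in size; top concentration of the series not given in the record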
Target sequence (P25779 123-467 limits assumed): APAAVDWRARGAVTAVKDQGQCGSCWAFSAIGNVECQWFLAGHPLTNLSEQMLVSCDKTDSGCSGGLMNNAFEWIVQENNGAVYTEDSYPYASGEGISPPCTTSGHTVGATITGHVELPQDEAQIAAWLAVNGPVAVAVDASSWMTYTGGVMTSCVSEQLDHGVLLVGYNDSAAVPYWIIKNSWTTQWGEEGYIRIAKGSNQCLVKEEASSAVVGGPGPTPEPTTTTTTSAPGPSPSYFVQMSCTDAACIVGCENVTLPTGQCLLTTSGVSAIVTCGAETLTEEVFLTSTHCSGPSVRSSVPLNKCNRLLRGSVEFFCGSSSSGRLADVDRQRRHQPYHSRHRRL
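Purified cruzain at 1.5 nM, pre-incubated 15 min with compound at room temperature in 100 mM sodium acetate pH 5.5, 5 mM DTT, 0.00005% Triton X-100. Reaction started with 2 uM Z-FR-AMC; AMC fluorescence increase over 60 s gives rate.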
Cruzain inh Det – qHTS Assay for Promiscuous and Specific Inhibitors of Cruzain (with detergent) | purified cruzain, Z-FR-AMC fluorescence, 0.01% Triton | Potency, µM, for inactives: max response, negative = inhibition, actives largely listed as inhibitors | hit rate 0.43% among 200,000 | AID 1478, 2009; active = well fitted curve in the direction sought with a large enough effect; inconclusive = small, poorly fitted or top-dose-only effect, or another doubt; inactive = no such curve, though single readings can be large; an effect the other way counts as inactive or inconclusive;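 note: plate controls were neutral wells for no effect and buffer without enzyme for full effect; nearly all actives have a fitted effect of over 40% in size; top concentration of the series not given in the record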
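Detergent-containing run (0.01% Triton X-100) in acetate buffer pH 5.5 with 5 mM DTT: enzyme at 1.5 nM final, 15 min compound preincubation at room temperature, then 2 uM Z-FR-AMC substrate. Activity taken as 60 s fluorescence increase at 360/450 nm.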
Lassa entry inh – qHTS for Inhibitors of binding or entry into cells for Lassa Virus. Lassa virus pseudotype entry inhibition, cell reporter; control for the full effect not named in the record. Potency, µM (top dose mostly 37.9 µM), inactives show at the top dose activity change, negative = inhibition, actives largely listed as inhibitors. hit rate 1.2% among 300,000. AID 540256, 2011; active means well fitted inhibition curve with a large enough effect; inconclusive means small, poorly fitted or top-dose-only effect, or effect the other way; inactive means flat fitted curve, though single readings scatter; tested in HEK293 cells; note: % is set by controls: 0 for no effect and ±100 for the full control effect; nearly all actives have a fitted effect of over 50% in size; luciferase read-out
SARS PLpro yeast – qHTS of Yeast-based Assay for SARS-CoV PLP | Potency, µM (titrated, usually from 32.9 µM), without a hit: at the top dose activity, positive = growth rescue | AID 485353, 2010 | S. cerevisiae expressing SARS-CoV PLpro, growth rescue; control for the full effect not named in the record | hit rate 0.19% among 330,000; note: 0% is about no effect; nearly all actives have a fitted effect of over 55% in size; growth read by luminescence after 48 h
RE007 growth inh – qHTS Assay for Inhibitors of the HIV-1 protein Vpr | AID 651644, 2012 | hit rate 0.21% among 360,000 | S. pombe RE007 Vpr strain, BacTiter-Glo ATP luminescence, 24 h; control for the full effect not named in the record | Potency, µM (doses to about 92.2 µM), without a hit: at the highest dose activity change, negative = less growth; active = well fitted falling curve with a large enough effect; inconclusive = small, poorly fitted or top-dose-only effect; inactive = no such curve, though single readings can be large or run the other way;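 note: % is set by controls: 0 for no effect and ±100 for the full control effect; nearly all actives have a fitted effect of over 50% in size; the assay follows cell death caused by Vpr and the record does not say whether a fall means rescue or toxicity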
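Fission yeast RE007 carrying one integrated HIV-1 vpr copy, seeded at OD 0.01 in PMG+AL medium with 23 nL pinned compound. Grown 24 h at 30 degrees; viability read by BacTiter-Glo luminescence after 5 min.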
NS1 inh – qHTS Assay for Inhibitors of Influenza NS1 Protein Function; S. cerevisiae slowed by influenza A NS1, growth recovery by OD600; Potency, µM (top dose mostly 46.1 µM), inactives show at the highest dose activity, positive = more growth; hit rate 0.4% among 270,000; note: actives are rising curves; nearly all actives have a fitted effect of over 50% in size
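OD600 was taken as the measure of yeast growth restored by compound in an NS1-expressing S. cerevisiae strain. Cells had been washed out of glucose medium and diluted 1:100 into galactose -URA medium, pH 6.0.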
MARV entry inh – qHTS for inhibitors of binding or entry into cells for Marburg Virus | Marburg virus pseudotyped entry inhibition, cell reporter; control for the full effect not named in the record; about a third of the inactives were read at about 46 µM | Potency, µM (doses to about 37.8 µM), for the others: at the highest dose activity change, negative = inhibition, hits mostly inhibitors | hit rate 1.8% among 300,000; active = well fitted inhibition curve with a large enough effect; inconclusive = small, poorly fitted or top-dose-only effect, or effect the other way; inactive = flat fitted curve, though single readings scatter; tested in HEK293 cells; about a fifth of its hits are not listed in these tables; note: % is set by controls: 0 for no effect and ±100 for the full control effect; luciferase read-out
* marks the source's active call; other numbers are inactive results; ? = inconclusive; . = no result given; [ ] = another dose, or the depositor's remark. Unless noted, calls come from the whole dose curve; as a rule, active means well fitted rising curve with a large enough effect; inconclusive means small, poorly fitted or top-dose-only effect; inactive means no such curve, though single readings can be large or run the other way. Potency is the fitted concentration of half-maximal effect.

SMILES	2A StopGo	Cruzain noTriton	Cruzain inh Det	Lassa entry inh	SARS PLpro yeast	RE007 growth inh	NS1 inh	MARV entry inh
CCO[C@H]1OC(C(=O)N2CCN(C)CC2)=C[C@@H](c2coc3ccccc3c2=O)[C@@H]1CCCO	-4%	.	.	.	1%	-3%	-2%	.
COc1cccc(CCNC(=O)c2c(O)nc3ccccn3c2=O)c1	37%[activator]	6%	-5.5%	.	.	.	.	?
COCCO[C@H]1CCC2C3CC=C4C[C@@H](O)CC[C@]4(C)C3CC[C@@]21C (stereo not given in full)	?	.	.	4%[46.1 µM]	-1%	7%	.	1%[46.1 µM]
CC(=O)c1ccc(NC(=O)CN(C)S(=O)(=O)c2cc3c(cc2Cl)NC(=O)CO3)cc1	0%	-7%	-1.8%	6%[46.1 µM]	.	.	.	.
O=C1NC2(CCCCC2)OC12CCCCC2	-10%	.	.	-1%	.	-2%	.	?
O=C(Nn1c(O)c(C=C2N=c3ccccc3=N2)sc1=S)c1ccccc1	21%	-7%	-1.5%	6%	6%	-1%	6%	0%
Cc1csc(SCC(=O)NC2CCS(=O)(=O)C2)n1 (stereo not given)	7%	.	.	5%[46.1 µM]	-2%	-5%	.	0%[46.1 µM]
CC1CCN(c2oc(-c3cccc4ccccc34)nc2C#N)CC1	.	?	32µM*	?	-10%	6%	-3%	9%
CN(C)c1ccc(-c2nnn(Cc3ccccc3Br)n2)cc1	.	-4%	-3.6%	0%	-4%	-3%	-8%	1%
CC(C)C(=O)Nc1c(-c2ccccc2F)c(=O)c2ccccc2n1C	-14%	.	.	.	2%	-3%	4%	.
NC(=O)CC(NC(=O)Cc1cccc2ccccc12)c1ccc(N2CCN(c3ccccn3)CC2)c([N+](=O)[O-])c1 (stereo not given)	5%	.	.	.	3%	-6%	-9%	.
Cc1cccc(N2CCN(C(=O)c3cccc(N4C(=O)C5CC=CC(C)C5C4=O)c3)CC2)c1C (stereo not given)	-23%	21%	-4.9%	?	-13%	-4%	13%	-22%
COC(=O)COc1cccc(NC(=O)COc2ccccc2)c1	-13%	-7%	-0.3%	-4%	-18%	-18%	-16%	8%
Cc1ccc(CC2(OCCN(C)C)CCC(C(C)(C)C)CC2)cc1 (stereo not given)	?	.	.	?	.	6%	.	10µM*
COc1ccc(-c2c(C)cc3oc(=O)cc(-c4ccccc4)c3c2C)cc1C=O	-1%	?	1.9%	.	3%	8%	.	.
Cc1nc2c([nH]c3ccc(Br)cc32)s1	29%	-25%	-3.1%	19%[14.3 µM]	-23%	-12%	-63%	11%
COc1ccccc1C(=O)OCCc1ccccc1	0%	.	.	-29%[46.1 µM]	.	-12%	.	?
Cc1nn(C)cc1/C=C/C(=O)c1ccccc1	55%	-13%	-5.7%	29%	-8%	-24%	-101%	?
CCOC(=O)Nc1nc(-c2ccccc2)c(C(=O)c2ccccc2)s1	-16%	-1%	-2.8%	?	18%	15%	-5%	?
O=C(CSc1nc2ccccc2o1)N1c2ccccc2Sc2ccc(Cl)cc21	-19%	?	-1.6%	1%	2%	-1%	-1%	?
O=C1c2ccccc2C(=O)N1/N=C/c1ccc(O)c(O)c1O	8%	.	.	0%	?	-8%	6%	-13%[46.1 µM]
O=C(COC(=O)c1ccc([N+](=O)[O-])o1)Nc1ccc2c(c1)OCO2	2%	.	.	-12%	-79%	?	.	-28%
C/C(=N\S(=O)(=O)c1ccc(C)cc1)N1CCCCC1	6%	.	.	16%[46.1 µM]	-1%	-3%	5%	2%[46.1 µM]
Cc1nc2[nH]c(=S)[nH]c2cc1Br	-1%	2%	-1.4%	-10%	-5%	23%	-1%	-32%

3 structures from above, sorted by heavy-atom count, rising:
SMILES	2A StopGo	Cruzain noTriton	Cruzain inh Det	Lassa entry inh	SARS PLpro yeast	RE007 growth inh	NS1 inh	MARV entry inh
Cc1nc2[nH]c(=S)[nH]c2cc1Br	-1%	2%	-1.4%	-10%	-5%	23%	-1%	-32%
CN(C)c1ccc(-c2nnn(Cc3ccccc3Br)n2)cc1	.	-4%	-3.6%	0%	-4%	-3%	-8%	1%
NC(=O)CC(NC(=O)Cc1cccc2ccccc12)c1ccc(N2CCN(c3ccccn3)CC2)c([N+](=O)[O-])c1 (stereo not given)	5%	.	.	.	3%	-6%	-9%	.

Additional entries
SMILES	2A StopGo	Cruzain noTriton	Cruzain inh Det	Lassa entry inh	SARS PLpro yeast	RE007 growth inh	NS1 inh	MARV entry inh
O=C(O)C1C2C=CC(C2)C1C(=O)N1CCN(CCO)CC1 (stereo not given)	-22%	-6%	-5.1%	-5%	-2%	6%	0%	19%
Oc1c(Cl)cc(Cl)cc1CNc1nc2ccccc2[nH]1	-8%	.	.	0%	-5%	-2%	-39%	4%
Cc1ccc(C2C=C(c3ccc(Cl)cc3)Nc3nc(NC(=O)c4ccco4)nn32)cc1 (stereo not given)	?	2%	-3.2%	-18%[46.1 µM]	.	.	.	?
Cc1cccc(C)c1OCC(=O)Nc1ccncc1	-29%	.	.	2%	0%	-6%	6%	?
Cc1cc(C(=O)N/N=C\c2cc(C(C)(C)C)c(O)c(C(C)(C)C)c2)n[nH]1	-22%	.	.	-28%[46.1 µM]	-21%	4%	-7%	?
C=CCn1c(Oc2ccc(C=O)cc2OCC)nc2c1c(=O)n(C)c(=O)n2C	-8%	.	.	.	0%	-7%	5%	.
CN(C(=O)N1CCN(S(=O)(=O)c2ccccc2)CC1)c1ccccc1	-11%	.	.	.	0%	10%	-3%	.
CCSC1=NC2(CCN(C(=O)NC3CCCCC3)CC2)N=C1c1ccc(OC)cc1	-20%	11%	-6.2%	-1%[46.1 µM]	.	.	.	.
Cc1ccc2c(c1)NC(=O)C(CC(=O)NCCCN1CCCCC1)O2 (stereo not given)	-2%	-5%	5.2%	.	14%	-5%	4%	.
O=C(Cn1c(=O)n(Cc2ccco2)c(=O)c2c3c(sc21)CCCC3)Nc1ccccc1	-15%	25µM*	-5.5%	-7%	-6%	-5%	?	?
CC(NC(=O)Cc1cccs1)c1ccncc1 (stereo not given)	15%	-7%	2.8%	32%[14.3 µM]	0%	-14%	11%	12%
CCCCNc1nc2c(S(=O)(=O)c3ccc(Cl)cc3)nnn2c2ccsc12	-3%	4%	0.3%	0%[46.1 µM]	.	.	.	.
CC(C)Cn1c(=O)c2sccc2n2c(CCCC(=O)NCCc3ccc(Cl)cc3)nnc12	20%	18%	-2.4%	8%[46.1 µM]	.	.	.	.
COc1ccc(N(C(=O)c2ccco2)C(C(=O)NC2CCCC2)c2ccncc2)cc1OC (stereo not given)	13%	.	.	1%	1%	2%	6%	-16%[46.1 µM]
O=C(/C=C/c1ccc([N+](=O)[O-])cc1)N1CCN(c2ccccc2F)CC1	35%[activator]	2%	-1.1%	?	-5%	-11%	8%	?
COc1cc(C)c(NC(c2ccccc2)c2ccccc2)cc1OC	?	.	.	17%	-5%	9%	.	?
COc1ccccc1CNC(=O)C1CCN(c2nnc(C)c3c(C)n(-c4ccccc4)nc23)CC1	-17%	-5%	-3.0%	-12%[46.1 µM]	.	.	.	?
COc1ccc(N=C2SC(C(=O)N3CCN(c4ccc([N+](=O)[O-])cc4)CC3)CC(=O)N2C)cc1 (stereo not given)	?	.	.	.	1%	-12%	-3%	.
CCOC(=O)[C@@H]1[C@H]2COc3ccc(Br)cc3[C@H]2N2C(=O)N(c3ccc(Cl)cc3)C(=O)[C@@]12C	-25%	.	.	.	5%	1%	1%	.
COc1ccc(CN(C(C)=O)c2cccc(C)c2C)cc1	-29%	2%	1.7%	?	3%	2%	-12%	?
N#C/C(=C\c1ccc(N2CCOCC2)cc1)c1ccccc1	32%[activator]	-5%	-10%	?	-12%	-24%	7%	?
COC(=O)c1ccccc1NC(=O)C1CC(=O)N(c2ccc(C)cc2)C1 (stereo not given)	-8%	-5%	-0.8%	-13%	-5%	-10%	1%	-25%
CCn1cc(Br)c(C(=O)Nc2ccccc2C(=O)OC)n1	-21%	.	.	?	-4%	-22%	.	?
COc1ccc(NC(=O)CCCSc2nc(-c3ccco3)cc(C(F)(F)F)n2)cc1	-10%	4%	-10%	-3%[46.1 µM]	.	.	.	0%[46.1 µM]
Cc1nc(C)c(C(=O)NNS(=O)(=O)c2ccc3ccccc3c2)s1	-27%	-3%	-3.7%	?	-8%	2%	2%	-31%
O=C1OC(N2C(=O)CC[C@H]2C(=O)Nc2ccc(Br)cc2F)c2ccccc21 (stereo not given in full)	-23%	.	.	.	2%	-7%	-9%	.
Nc1nc(-c2ccc(Cl)cc2)c(N=Nc2ccc(S(=O)(=O)N3CCOCC3)cc2)s1	?	-22%	-1.2%	4%	1%	15%	8%	?
CC1CCCC(C)N1C(=O)c1ccccc1Nc1ccc(SC(F)F)cc1 (stereo not given)	-27%	3%	-8.2%	?	-42%	17%	-58%	12µM*
COc1cc(C(=O)OCCNC(=O)c2cccnc2)cc(OC)c1OC	-19%	.	.	-25%	-2%	14%	.	?
COc1cc(S(=O)(=O)N2CCN=C2c2ccccc2)ccc1F	-20%	?	4.2%	?	-2%	-4%	-1%	?
COC(=O)CSc1nc(N2CCOCC2)c2c(c1C#N)CC(C)(C)N(C)C2	-6%	0%	-1.3%	1%	0%	-1%	0%	8%
CN1CCN(c2ccc3nccnc3c2)CC1	-3%	.	.	4%	4%	19%	.	17%[46.1 µM]
O=c1[nH]c(C2CCN(S(=O)(=O)Cc3ccccc3)CC2)nc2c1nnn2Cc1ccccc1Cl	?	.	.	?	-4%	21%	-8%	5%[46.1 µM]
CCN(CC(=O)Nc1c(F)cccc1F)C(=O)c1ccc(C)c(S(=O)(=O)N2CCCCC2)c1	-2%	.	.	-7%	-1%	0%	.	-23%[46.1 µM]
CCC(C)N=CC1=C(O)CC(c2ccccc2)CC1=O (stereo not given)	8%	3%	1.3%	1%	-4%	-1%	-15%	21%
